Source: PubChem BioAssay (Broad Institute)
Beta apoptosis: inhibitors of cytokine-induced beta cell apoptosis, primary screen, luminescence | 0.8% of 300,000 active | protection from apoptosis, % (concentration not given with the values) | INS-1E cytokine-induced death, ATP luminescence, 48 h; percent of positive-control rescue, neutral wells zero;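 active = all replicates at 75% or more, or half of them and the mean; inconclusive = half reach 75% but not the mean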;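 also: 0% = cytokine-treated negative control wells and 100% = positive control rescue; higher means more ATP so stronger rescue from cytokine killing; wells of about 40 µL received 100 nL stock; the first replicate is given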
T cruzi inh: inhibitors of intracellular T. cruzi growth, primary screen, luminescence, NIH3T3 host cells. T. cruzi beta-gal in NIH3T3, 90 h. 1.4% of 300,000 active. AID 1885, 2009. inhibition, % (concentration not given with the values);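 active = mean inhibition across valid replicates above about 55%, limit read from the data; inconclusive = mean below that limit but half or more replicates reach it; inactive = mean below it, under half of replicates reach it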;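 also: signal also drops with host cell toxicity which is not excluded here; 0% = plate median of DMSO wells and 100% = zero luminescence signal; higher percent means less beta-gal luminescence so fewer parasites; stock transfer was 50 nL into about 50 µL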
Calb FLC: C. albicans growth inhibition with fluconazole, primary screen, CaCi-2 strain, Alamar Blue fluorescence | C. albicans CaCi-2 (fluconazole-resistant clinical isolate) + fluconazole, 48 h | growth inhibition, % (test concentration not listed) | 0.57% of 300,000 active;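 active = most replicates above 75%; inconclusive = exactly half above 75%; inactive = most below 75%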;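 also: all wells also contain fluconazole at 8 µg/ml as a sub-toxic cotreatment; 0% = median of DMSO wells and 100% = median of geldanamycin control wells; wells of about 8 µL received 7.5 nL stock; the first replicate is given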
RanGTP-Impb inh: inhibitors of RanGTP-importin-beta interaction, primary screen, biochemical, FRET, CFP-Ran, YFP-importin-beta, homogeneous; Ran GTPase (GTP-bound) - importin-beta complex; cell-free CFP-Ran/YFP-importin-beta FRET ratio; inhibition, % (concentration not given with the values); 1.1% of 300,000 active; AID 2216, 2009;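 active = most replicates above 15%; inconclusive = exactly half above 15%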;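 also: 0% = DMSO wells and 100% = Ran loaded with GDP instead of GTP; wells of about 40 µL received 100 nL stock; the first replicate is given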
FGF22 binding: binders of human FGF22 protein, primary screen, FGF22 synaptogenesis inhibitor project, biophysical, thermal shift, single point; Fibroblast growth factor 22 (Homo sapiens), Q9HCT0; recombinant FGF22 thermal shift, SYPRO orange fluorescence; percent of sucrose octasulfate shift, DMSO zero; calls only at 9.99 µM; 1.5% of 340,000 active; AID 651658, 2012;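 active = melting point raised past a set limit in the mean and every replicate; inconclusive = no clear call; three in four hits are not shown here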
Target sequence (Q9HCT0 whole entry, looked up): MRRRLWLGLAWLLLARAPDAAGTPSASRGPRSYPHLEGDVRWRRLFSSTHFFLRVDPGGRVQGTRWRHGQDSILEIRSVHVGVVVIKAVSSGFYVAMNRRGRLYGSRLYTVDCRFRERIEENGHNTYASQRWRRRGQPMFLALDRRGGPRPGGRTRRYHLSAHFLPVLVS
ALR inh: inhibitors of human ALR sulfhydryl oxidase, primary screen, biochemical, H2O2 detection, HRP-luminol luminescence, single point; purified ALR, DTT oxidation; 3.8% of 290,000 active; AID 485317, 2010; FAD-linked sulfhydryl oxidase ALR (Homo sapiens), P55789; inhibition, % (test concentration not listed);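 active = mean and each replicate at 75% or more; inconclusive = only one of the two met; inactive = neither met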;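 also: stock transfer was 7.5 nL into about 7.5 µL; 0% = neutral wells and 100% = wells with inactivated enzyme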
Target sequence (P55789 whole entry, looked up): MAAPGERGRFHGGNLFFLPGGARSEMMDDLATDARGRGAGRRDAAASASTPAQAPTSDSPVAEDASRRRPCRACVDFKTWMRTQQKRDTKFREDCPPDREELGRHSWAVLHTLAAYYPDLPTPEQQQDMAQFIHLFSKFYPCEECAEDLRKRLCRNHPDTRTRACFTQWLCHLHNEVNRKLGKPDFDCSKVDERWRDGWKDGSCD
MLL AF4-AF9 inh: inhibitors of AF4 peptide binding to AF9, primary screen, biochemical, AlphaScreen, biotin-AF4 peptide, FLAG-AF9, single point; inhibition, % at 10 µM; Protein AF-9 (Homo sapiens), P42568; 0.47% of 350,000 active;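 active = every replicate reaching a set inhibition limit, whatever the replicate mean, cut at about 25% in these data; inconclusive = mean inhibition reaches that limit but some replicates miss it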;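 also: 0% = plate neutral control median and 100% = total signal loss; the record names both 10 and 1 µM as test concentration; the first replicate is given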
Target sequence (P42568 whole entry, looked up): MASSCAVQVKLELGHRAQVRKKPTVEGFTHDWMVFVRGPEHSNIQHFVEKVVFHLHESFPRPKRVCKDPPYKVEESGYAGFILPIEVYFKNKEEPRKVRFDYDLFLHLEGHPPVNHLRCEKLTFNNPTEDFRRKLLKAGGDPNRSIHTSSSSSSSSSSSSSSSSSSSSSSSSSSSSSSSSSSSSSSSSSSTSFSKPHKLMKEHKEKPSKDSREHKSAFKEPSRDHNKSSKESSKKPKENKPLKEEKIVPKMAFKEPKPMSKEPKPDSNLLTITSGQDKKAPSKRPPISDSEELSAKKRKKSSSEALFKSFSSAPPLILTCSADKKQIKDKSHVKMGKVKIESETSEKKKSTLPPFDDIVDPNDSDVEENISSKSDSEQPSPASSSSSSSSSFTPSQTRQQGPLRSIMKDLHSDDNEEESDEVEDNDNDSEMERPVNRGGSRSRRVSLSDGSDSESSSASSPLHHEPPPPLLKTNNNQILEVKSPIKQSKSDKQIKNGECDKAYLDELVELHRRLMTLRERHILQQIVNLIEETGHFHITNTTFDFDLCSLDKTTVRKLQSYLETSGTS
rRNA inh HTS: reduced GFP signal of wild-type E. coli, primary screen, bacterial rRNA inhibitor project, GFP/RFP fluorescence, OD600, single point. AID 720706, 2013. 1.6% of 350,000 active. E. coli WT GFP vs humanized-ribosome RFP mutants, 24 h; stronger effect = lower value; DMSO median 0, no signal -100. GFP signal change (wild-type ribosome), % (test concentration not listed);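 active = significant combined selectivity score with lowered wild-type GFP, culture density cut under 30%, mutant RFP and density less affected; inactive = any of these conditions unmet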; also: one replicate is shown; some compounds called inactive have numbers as strong as hits
rRNA inh HTS OD600: recorded beside rRNA inh HTS, whose call it bears; OD600 change, %; measured here: OD600 growth;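 optical density of the mix in the first replicate; 0 = DMSO median and -100 = no signal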
rRNA inh HTS RFP: further read-out of rRNA inh HTS, marked with its call; RFP signal change, %; measured here: RFP humanized mutant strains;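 first replicate; 0 = DMSO median and -100 = no signal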
* marks the source's active call; other numbers are inactive results; i = inactive; ? = inconclusive; / = not tested or not shown. A portion of the library (hit frequency here may not be typical).

SMILES	Beta apoptosis	T cruzi inh	Calb FLC	RanGTP-Impb inh	FGF22 binding	ALR inh	MLL AF4-AF9 inh	rRNA inh HTS	rRNA inh HTS OD600	rRNA inh HTS RFP
CCOC(=O)C(NC(=O)c1ccccc1)(N1CCOCC1)C(F)(F)F (centres undefined)	-0.7	-15.8	19.8	2.7	/	-2.2	/	/	/	/
O=C(CCN1C(=O)/C(=C\C=C\c2ccccc2)SC1=S)Nc1ccc(C(=O)O)cc1	-4.7	2.7	0.1	-3.1	i	-1.5	6.0	/	/	/
O=C(Nc1ccccc1C(=O)NC1CC1)c1ccccc1F	0.1	/	/	/	i	4.5	-0.7	-0.1	9.3	-0.6
O=C(NC(=S)Nc1nc(-c2cccc([N+](=O)[O-])c2)cs1)c1cc(Cl)ccc1Cl	0.8	16.1	-10.0	?	i	51.7	-1.5	4.1	0.3	4.7
Cn1c(C(=O)O)cc2cc(Oc3ccccc3)ccc21	-0.5	-20.5	13.9	2.4	i	17.7	-0.3	0.3	-1.3	-4.2
CCOc1ccc(N2C(=O)C(Cl)=C(N3CCOCC3)C2=O)cc1	1.8	1.9	8.0	-4.4	i	1.7	7.3	-7.7	-2.7	0.7
C=CCc1cc(/C=C2/NC(=O)N(CC(=O)OC)C2=O)cc(OC)c1O	4.2	-7.1	1.8	-4.6	/	98.1*	2.3	-8.5	-3.0	-1.3
N/C(=N\OC(=O)c1ccccc1Cl)c1ccc(Cl)cc1	-2.4	3.4	-0.6	2.5	/	-0.1	/	/	/	/
Cc1ccc(Nc2nc(N)nc(CN3CCN(C(=O)c4ccco4)CC3)n2)cc1Cl	-10.8	-10.8	21.3	-4.4	/	47.2	/	/	/	/
CC(C)(C)n1nnnc1C(c1ccc(C(F)(F)F)cc1)N(Cc1ccccc1)Cc1ccco1 (centres undefined)	117.4*	30.6	19.1	-1.5	/	-11.0	/	/	/	/
CN1C(=O)C(CC(=O)Nc2ccc(F)cc2)N(Cc2ccco2)C1=S (centres undefined)	-4.1	3.9	-14.2	3.7	i	-13.7	-0.3	1.6	-2.7	1.3
COC(=O)C(CSCc1ccccc1)NC(=O)CSc1nc(C)cc(=O)[nH]1 (centres undefined)	/	0.6	-0.7	3.6	i	-2.4	-0.9	5.6	2.8	1.5
COC(=O)[C@H]1C[C@@H]1[C@H](NS(=O)(=O)c1ccc2ccccc2c1)c1ccccc1	-3.0	-8.9	8.5	-2.2	i	-11.9	-3.5	-14.6	-17.2	-12.7
Nc1cc([N+](=O)[O-])ccc1Nc1ccc(O)cc1	7.7	4.3	-12.1	-1.9	i	98.8*	23.1	-24.1*	-9.4*	0.2*
Cc1ccc(S(=O)(=O)N(C)C)cc1NC(=S)N1CCc2ccccc21	-3.0	10.4	-9.4	0.0	i	3.1	0.4	-5.0	-1.4	-0.3
CC(=O)c1ccc(N2CCN(S(=O)(=O)c3cccc(S(=O)(=O)N4CCOCC4)c3)CC2)cc1	0.5	25.3	-5.9	-5.7	/	-7.3	/	/	/	/
Nc1ccccc1-c1nc2ccccc2s1	-0.4	-11.1	3.6	4.9	i	-4.8	-12.3	6.3	8.2	-2.6
CCOc1ccc(N(CC(=O)Nc2ccccc2C)S(=O)(=O)c2c(C)[nH]c(=O)[nH]c2=O)cc1	0.3	2.1	-5.5	?	i	-2.2	1.3	-3.7	-3.5	0.0
CSc1cccc(CNC(=O)CC2C(=O)NCCN2CC(C)(C)C)c1 (centres undefined)	-5.1	9.2	-4.3	1.6	i	-37.3	-0.2	-4.7	-6.3	-2.3
CCCCOc1ccc(N2C(N)=NC(N)=NC23CCCCC3)cc1	6.8	10.9	0.3	0.4	i	/	4.5	-11.8	-13.3	8.0
Cn1ncc([N+](=O)[O-])c1C(=O)N/N=C/c1cccc([N+](=O)[O-])c1	-1.6	4.9	?	-0.9	i	-6.8	-2.1	21.6	15.3	3.9
CC(SC1=NCCS1)C(=O)Nc1nnc(-c2ccc(Br)cc2)s1 (centres undefined)	-5.4	13.8	-2.7	-5.8	i	2.6	-0.3	14.6	-22.4	6.3
Nc1ncnc(N2CCc3ccccc32)c1[N+](=O)[O-]	-34.0	-2.6	-11.2	-1.7	/	29.1	-2.2	16.4	11.5	-2.1
N#Cc1c(Sc2ncc(C(F)(F)F)cc2Cl)nsc1C/C=N\OCc1ccccc1Br	0.9	-10.9	0.0	2.4	/	-9.9	/	/	/	/
COc1ccccc1N1CCN(C(=O)c2cc3c(s2)CCCCC3)CC1	-2.3	17.0	5.5	2.6	i	-1.5	0.8	-54.4	-74.4	-12.6

(listing goes on)
SMILES	Beta apoptosis	T cruzi inh	Calb FLC	RanGTP-Impb inh	FGF22 binding	ALR inh	MLL AF4-AF9 inh	rRNA inh HTS	rRNA inh HTS OD600	rRNA inh HTS RFP
CCOc1ccc(C(=O)/C=C/c2ccc(OC)c(OC)c2)cc1	0.1	-11.4	30.9	-0.2	i	97.2*	7.1	-28.2	-24.5	2.8
N#CC1=C(N)SC(N)=C(C#N)C1c1ccc(C(F)(F)F)cc1	-3.3	-12.5	-1.6	23.9*	/	68.5	/	/	/	/
O=C(CCCn1c(=S)[nH]c2cc3c(cc2c1=O)OCO3)NCc1cccc(Cl)c1	1.7	3.5	-1.6	-5.5	i	-1.5	-5.2	-3.9	1.4	-5.3
CCOC(=O)NC(=O)COC(=O)c1cccc2ccccc12	-7.8	2.4	-0.2	8.0	i	-0.1	-2.9	-20.9	-25.5	-2.8
CCCCc1nnc(NC(=O)COc2ccc3c(C)cc(=O)oc3c2)s1	-1.3	-4.8	3.7	-1.0	i	/	/	1.8	8.8	-3.1
CC(=O)c1cccc(Nc2cc(C)nc3c(C)cccc23)c1	7.3	27.4	2.7	2.2	i	-5.5	0.0	6.9	-3.8	-0.7
CC12CCC(C(=O)N/N=C/c3ccc(O)cc3)(OC1=O)C2(C)C (centres undefined)	-4.0	-0.9	-6.1	-1.8	i	99.4*	-9.5	3.8	2.8	0.2
Cc1ccc(C2=N/C(=C\c3c(C)nn(-c4ccccc4)c3N3CCCC3)C(=O)O2)cc1	0.5	-15.0	12.4	?	/	11.5	/	/	/	/
CCOc1ccc(CCNC(=O)CSc2nc3ncc(Cl)cc3[nH]2)cc1OCC	-2.6	-0.7	-2.1	3.1	i	-2.2	-10.3	3.6	20.8	2.2
O=C(NCCNC(=O)C(c1ccccc1)c1ccccc1)c1ccco1	/	-18.5	110.7*	1.9	/	3.8	/	/	/	/
COc1ccc(N2CCN(C(=O)CCS(=O)(=O)c3cccc4nsnc34)CC2)cc1	-1.5	-16.9	-12.5	0.8	/	?	/	/	/	/
CCCN(CC(=O)Nc1ccccc1OC)C(=O)c1ccccn1	-2.4	/	/	/	i	-4.4	-0.6	10.6	8.2	-0.7
Cc1cccc(OCCCC(=O)Nc2ccc(Br)cc2)c1	1.7	0.4	8.6	-1.9	/	-4.4	/	/	/	/
CN(CCCCCCCCC(=O)/C=N/O)Cc1ccccc1	-2.2	43.9	-0.1	-1.8	i	16.3	5.1	-6.4	-3.3	-11.6
CCO[C@H]1OC(C(=O)N2CCN(C)CC2)=C[C@@H](C(C)(C)C)[C@@H]1CCCO	-1.6	-4.9	-2.2	9.3	i	-8.7	-14.8	12.2	1.7	-0.2
Cc1ccc(OCCNC(=O)c2cc(C(=O)NCCOc3ccc(C)cc3)cc([N+](=O)[O-])c2)cc1	9.4	51.7	-5.1	0.5	i	-1.8	3.9	7.8	-14.9	-6.2
CCOc1ccc(CCNC(=O)COC(=O)COc2ccc(C(C)=O)cc2)cc1OCC	3.5	-4.1	23.2	2.8	i	-7.2	-9.7	4.9	9.7	2.2
Cc1ccccc1S(=O)(=O)Oc1cccc2c(O)cccc12	-4.7	5.1	32.4	0.9	i	98.9*	2.6	-37.5	-64.8	-0.7
Cn1c(=O)c2c(nc(Cl)n2Cc2ccncc2)n(C)c1=O	-1.6	13.3	5.3	4.2	/	-1.4	/	/	/	/
CCC(C)NC(=O)c1cccc(C)c1 (centres undefined)	-8.0	-7.6	-2.6	-5.5	i	3.0	-17.4	10.8	3.6	1.1
C=C(C)Cn1c(COc2ccccc2)nnc1SCC(=O)O	1.1	-0.7	2.8	8.4	/	-1.4	/	/	/	/
COc1ccc(/C=C2\CN(Cc3ccccc3)C/C(=C\c3ccc(OC)cc3)C2=O)cc1	-5.4	/	/	/	i	/	-1.1	-10.2	-9.1	20.6
Cc1cc(C)c2nc3nc(C)c(C)cc3c(N)c2c1	/	-21.6	-31.8	13.6	i	/	0.7	-9.3	-28.6	-6.0
CCCCCC(=O)NC(=S)NC1C2CC3CC(C2)CC1C3 (centres undefined)	/	29.7	-1.2	-3.1	i	5.3	-0.2	0.8	1.5	-0.2
CCCCCCC(CC(=O)NCc1cccnc1)CC(=O)NCc1cccnc1	-1.1	-13.5	-4.5	-3.5	i	0.9	-2.4	14.3	-3.2	1.4

The results go on.
SMILES	Beta apoptosis	T cruzi inh	Calb FLC	RanGTP-Impb inh	FGF22 binding	ALR inh	MLL AF4-AF9 inh	rRNA inh HTS	rRNA inh HTS OD600	rRNA inh HTS RFP
CCSc1ccccc1C(=O)NCCCn1ccnc1	2.2	-9.2	4.8	0.5	/	/	/	/	/	/
Cc1ccccc1Nc1ncccc1C(=O)N1CCOCC1	-1.8	0.4	108.7*	?	/	-3.6	/	/	/	/
O=C(c1cc(C(=O)N2CCCC2)cc([N+](=O)[O-])c1)N1CCCC1	-1.8	5.2	-3.2	2.0	i	-3.3	0.5	6.0	5.5	-6.3
N#Cc1cccc(S(=O)(=O)NCc2nnc3ccccn23)c1	-5.8	/	/	/	i	/	-4.6	9.7	11.4	1.6
CCCN(C(=O)c1cc(Cl)nc2ccccc12)c1c(N)n(Cc2ccccc2)c(=O)[nH]c1=O	1.6	/	/	/	i	-16.8	-0.1	15.1	8.8	1.8
COc1ccc(C(CC(=O)Nc2ccccn2)N2Cc3ccccc3C2=O)cc1 (centres undefined)	/	-14.1	-5.5	-1.3	i	/	3.0	-3.1	-1.0	2.7
CCOC(=O)C(C)Sc1nc(-c2cccs2)ccc1C#N (centres undefined)	-5.5	-17.5	-0.8	3.3	/	-5.4	/	/	/	/
O/N=C/c1ccc2ccccc2n1	-11.2	-9.5	-4.0	2.0	i	-2.5	-1.4	10.1	-2.9	1.5
CCOC(=O)N1CCC(Nc2cc(C)nc3c(-c4ccccc4OC)c(C)nn23)CC1	15.0	10.5	-1.0	-7.2	i	/	2.2	-13.2	-12.0	-0.5
